# VDR inhibitor = Inhibitors of the vitamin D receptor (VDR): qHTS; VDR-SRC2-3 peptide fluorescence polarization, 2 h; Potency, µM, inactives show max response, negative = inhibition, usual class: inhibitors; actives 0.93% (n = 400,000); active = well fitted inhibition curve with a large enough effect; inconclusive = small, poorly fitted or top-dose-only effect, or another doubt; inactive = no such curve, though single readings can be large or run the other way; also: series mostly up to about 120 µM
# Target sequence (P11473 whole entry, looked up): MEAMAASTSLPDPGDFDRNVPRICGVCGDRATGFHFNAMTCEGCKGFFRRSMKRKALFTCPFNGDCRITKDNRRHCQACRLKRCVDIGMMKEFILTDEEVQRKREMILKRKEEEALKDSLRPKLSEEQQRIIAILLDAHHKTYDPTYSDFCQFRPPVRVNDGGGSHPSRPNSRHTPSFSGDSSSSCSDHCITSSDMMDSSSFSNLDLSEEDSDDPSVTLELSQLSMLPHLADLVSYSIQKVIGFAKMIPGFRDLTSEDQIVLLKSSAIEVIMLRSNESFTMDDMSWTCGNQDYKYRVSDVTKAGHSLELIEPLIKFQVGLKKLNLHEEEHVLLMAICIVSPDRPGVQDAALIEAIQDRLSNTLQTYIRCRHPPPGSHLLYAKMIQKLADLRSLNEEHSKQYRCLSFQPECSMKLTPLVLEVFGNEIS
#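 Two reagent solutions held at 4 deg C in the dark were dispensed, compounds pinned at 23 nl, and the mixture incubated 2 h at room temperature. Read-out: fluorescence polarization of VDR–SRC2-3 peptide binding.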
# * marks the source's active call; other numbers are inactive results; ? = inconclusive; & = joins results of further samples; ! = not confirmed by another sample. % is scaled to controls: 0 for no effect and ±100 for the full control effect; potency is read from the fitted curve at half-maximal effect. Not all compounds are listed (hit frequency here may not be typical).
VDR inhibitor,structure
-9%,COc1ccc(CN(C)C(=O)CNC(=O)c2ccc(C)cc2)cc1
-8%,CS(=O)(=O)N1CCN(C2Cc3ccccc3C2)CC1
-8%,COCc1nc2ccccc2n1Cc1c(F)cccc1Cl
3%,CC(C)COC(=O)C(C#N)c1nc2ccccc2nc1N1CCN(Cc2ccc3c(c2)OCO3)CC1 (stereo not drawn)
3%,COc1ccc(C(=O)NCC(=O)OCc2ccc(Br)cc2)cc1
12%,Cc1ccc(NC(=O)NC2CCCCCCC2)cc1C
-1%,COC(=O)c1cc2oc3ccccc3c2n1CC(=O)Nc1cc(OC)cc(OC)c1
4%,Cc1cc(OC(=O)c2ccccc2)n(CCC#N)n1
-15%,Cc1cccc(OCCNC(=O)CCc2ccccc2)c1
-8%,COC(=O)c1ccc(COc2cccnc2[N+](=O)[O-])cc1
-9%,CCO[C@H]1OC(C(=O)NC2CC2)=C[C@@H](C2CCCCC2)[C@@H]1CCCO
-6%,COc1ccccc1NC(=O)N1CCCC1
-13%,Cc1cccc(OCCNC(=S)NC(=O)c2cccnc2)c1
-1%,N#Cc1nc(-c2cccs2)oc1NCc1ccccc1
-7%,Cc1cccc2cc(CN(CC3CCCO3)C(=S)NCc3ccco3)c(=O)[nH]c12 (stereo not drawn)
-16%,O=C1C2C3C=CC(C3)C2C(=O)N1c1n[nH]c(-c2ccccc2)n1 (stereo not drawn)
2%,Cc1ccc(OC(=O)CCNC(=O)c2ccccc2Cl)c(Br)c1
-13%,COc1ccc(-n2c(=O)c(CCC(=O)N(C)Cc3ccccc3C)nc3ccccc32)cc1
-9%,Cc1cc(=O)[nH]c(N)n1
18%,CCc1c(CN2CCN(c3ccccc3F)CC2)csc1C
50µM*!,CN(Cc1ccco1)c1ncnc2ccc(-c3ccccc3Cl)cc12
-9%,O=C(CNC(=O)c1ccc2ccccc2c1)OCC(=O)N1CCN(S(=O)(=O)c2ccc3ccccc3c2)CC1
8%,COC(=O)c1cc(OC)c(OC)cc1NC(=S)N1CCC(C(N)=O)CC1
-15%,O=C(CCN1CCN(c2ccccc2)CC1)NNC(=S)Nc1ccccc1Cl
-17%,COc1ccc(Cc2nnc(NC(=O)Nc3ccccc3F)s2)cc1
10%,COc1ccc(NC(=O)CNC(=O)N2CC(=O)Nc3ccccc32)cc1OC
-10%,CC(C)C(CCNC(=O)CC(Cc1ccccc1)c1ccco1)c1ccco1 (stereo not drawn)
5%,CN(C)S(=O)(=O)c1ccc2c(c1)N(CC(=O)NCc1cccc(Br)c1)C(=O)CS2
-11%,Cc1nc2ccccc2c(-c2ccccc2)c1CC(=O)O
-4%,CCOCCc1c(O)nc(SCC)[nH]c1=O
-5%,CCc1cccc2c(C(=O)COC(=O)[C@@H]3CC(O)CN3S(=O)(=O)c3ccccc3[N+](=O)[O-])c[nH]c12 (stereo partly drawn)
3%&-7%,CCOc1ccc(CNC(=O)C2CCN(c3nn4c(=O)cc(C)nc4s3)CC2)cc1
-15%,C/C(=N/NC(=O)CNC(=O)C1COc2ccccc2O1)c1ccc([N+](=O)[O-])cc1 (stereo not drawn)
16µM*,COCCN(CC(=O)NC1CCCCC1)C(=O)/C=C/C(=O)c1ccc(OC)cc1O
-1%,COc1ccccc1NC(=O)c1sc2nc3c(cc2c1N)CCCCCC3
-2%,Cc1ccc(Cl)cc1N(CC(=O)NCc1ccc2c(c1)OCO2)S(C)(=O)=O
-16%&3%,CCc1nn(CC(=O)N2CCN(c3cc(C)ccc3C)CC2)c(=O)c2cc3occc3n12
0%,CCOC(=O)c1[nH]c2ccccc2c1NC(=O)c1ccccc1OC
7%,CC(=O)N1C(=O)N(C(C)=O)C2C1N(C)C(=O)N2C(C)=O (stereo not drawn)
-16%,O=C(/C=C/c1ccc(F)cc1)NCC1(c2ccccc2)CCOCC1
0%,COc1cccc(Oc2cnc(N)nc2-c2ccc(OC)cc2O)c1
-17%,CC1(NC(=S)N(CCO)CCO)CCS(=O)(=O)C1 (stereo not drawn)
12%,COc1ccc(C=NCC2OCCc3ccccc32)cc1OC (stereo not drawn)
-4%,COc1cccc(NC(=O)N2CCCC2C(=O)NC2CCCC2)c1 (stereo not drawn)
-7%,COc1ccccc1CNc1ncnc2ccc(-c3ccc(C(=O)N(C)C)cc3)cc12
0%,Cc1ccc(S(=O)(=O)c2cn(Cc3ccccc3)c3cc(N4CCCC4)c(F)cc3c2=O)cc1
-14%,CCc1ccc(-n2nc3ccc(NC(=O)COc4ccc(OC)cc4)cc3n2)cc1
-28%,N#C/C(=C/c1ccccc1OCc1ccc(F)cc1)c1ccc(C(=O)O)cc1
-5%,O=C(COc1ccc(Br)cc1Cl)NNC(=O)c1ccccc1
-8%,CCc1cc(-c2n[nH]c(=S)n2CC(C)C)cs1
-21%,Cc1c(-n2c(SCC(=O)O)nnc2-c2ccccc2Br)c(=O)n(-c2ccccc2)n1C
-9%,CCOC(=O)c1c(C)[nH]c(C(=O)Nc2cc(OCC)c(N3CCOCC3)cc2OCC)c1C
-11%,CCOc1ccc(C(C)(C)C)cc1S(=O)(=O)Nc1ccncc1
-20%,COc1ccc(N2CCN(C(c3cc(OC)ccc3OC)c3nnnn3CC3CCCO3)CC2)cc1 (stereo not drawn)
-20%,Cn1cnc2c(=O)sc3ccccc3c21
3%,Cc1nc(SCc2ccccc2Cl)c(C#N)c(C)c1C
-21%,Cc1ccc(C(=O)NNCC(=O)Nc2ccc(Cl)cc2F)cc1
-8%,COc1cc(CNCc2ccccn2)ccc1OCC(=O)NC1CCCCC1
-22%,CC#CC[N+](C)(CC#CC)CC(=O)c1ccccc1
89µM*,CCCCn1c(SCc2ccc(Cl)cc2)nc2c1c(=O)[nH]c(=O)n2C

# Sorted by length of the SMILES (descending): some entries from above
VDR inhibitor,structure
-21%,Cc1c(-n2c(SCC(=O)O)nnc2-c2ccccc2Br)c(=O)n(-c2ccccc2)n1C
-20%,COc1ccc(N2CCN(C(c3cc(OC)ccc3OC)c3nnnn3CC3CCCO3)CC2)cc1 (stereo not drawn)
-8%,COc1cc(CNCc2ccccn2)ccc1OCC(=O)NC1CCCCC1
-21%,Cc1ccc(C(=O)NNCC(=O)Nc2ccc(Cl)cc2F)cc1
-5%,O=C(COc1ccc(Br)cc1Cl)NNC(=O)c1ccccc1
3%,Cc1nc(SCc2ccccc2Cl)c(C#N)c(C)c1C

# Additional compounds follow:
VDR inhibitor,structure
1%,Cc1nn(CC(=O)NCCCc2ccccc2)c(C)c1[N+](=O)[O-]
1%,Cc1ccc(Cc2cn3cc(-c4ccc(F)cc4)nc3s2)cc1
-24%,O=c1ccc2ccc(O)c(O)c2o1
-16%,COCCNc1nnc(Cc2ccccc2)c(=O)[nH]1
79µM*,Cc1cccn2c(=O)c(/C=C(\C#N)c3nc4ccccc4s3)c(Oc3ccc(Br)cc3)nc12
-4%,Cc1cc2ccccn2c1C(=O)c1ccc(NN)c([N+](=O)[O-])c1
-2%,Cn1ccc(C(=O)Nc2cccnc2Cl)n1
-9%,Cc1noc(C)c1S(=O)(=O)N(Cc1ccccc1)C(C)C
?,[O-][N+](=Cc1ccccc1)c1ccc(Cl)cc1
-20%,CCc1nc(SCC(=O)c2cccs2)c2oc3ccccc3c2n1
-6%,COc1ccc(C)cc1-n1nnnc1SCc1cc(=O)n2cc(C)ccc2n1
-4%,COc1c2ccoc2c(OC[C@@H](O)C(C)(C)OC)c2oc(=O)ccc12
5%,COc1cccc(C(=O)C2CCCN(Cc3ccc(OC)c(Cn4cncn4)c3)C2)c1 (stereo not drawn)
10%,CCOc1ccc(-c2cn[nH]c2N)cc1
-1%,COc1ccc(NC(=O)CN2CCN(S(=O)(=O)N3CCCCCC3)CC2)cc1

# The closing five entries of the part above are carried over, then new ones follow:
VDR inhibitor,structure
-6%,COc1ccc(C)cc1-n1nnnc1SCc1cc(=O)n2cc(C)ccc2n1
-4%,COc1c2ccoc2c(OC[C@@H](O)C(C)(C)OC)c2oc(=O)ccc12
5%,COc1cccc(C(=O)C2CCCN(Cc3ccc(OC)c(Cn4cncn4)c3)C2)c1 (stereo not drawn)
10%,CCOc1ccc(-c2cn[nH]c2N)cc1
-1%,COc1ccc(NC(=O)CN2CCN(S(=O)(=O)N3CCCCCC3)CC2)cc1
-8%,Cc1cc(C)cc(CN2CCC(Oc3ccc(C(=O)N4CCCC4)cc3)CC2)c1
-6%,C#CCN1C(C)=CC(=O)[C@@H](O)[C@H]1c1ccccc1Br
1%,CCOc1cc(C)c(C(C)C)cc1S(=O)(=O)N1CC(C)OC(C)C1 (stereo not drawn)
7%,Cc1cccc(/C=N/NC(=O)c2ccc(NC(=O)c3ccc(Cl)cc3)cc2)n1
-4%,CCc1ccc(OC2=NS(=O)(=O)c3ccccc32)cc1
0%,Cc1cccc(C)c1NC(=O)Cn1cc(C(=O)c2ccco2)c2ccccc21
-15%,Cc1ccc(NCC(=O)N/N=C/c2cccc(Br)c2)cc1
14%,Cc1cc(N(C)C)nc(SC(C)C)n1
-20%,CCOC(=O)c1c(NC(C)=O)sc2c(OC)cccc12
-21%,Cc1occc1C(=O)N1CCC2(CCCN(Cc3ccc(F)c(F)c3)C2)C1 (stereo not drawn)
6%,CCOCCCNC(=O)C1CCCN1S(=O)(=O)c1ccc(Cl)cc1 (stereo not drawn)
3%,CC(=O)c1ccc2c(c1)OCCOCCOc1ccc(C(C)=O)cc1OCCOCCO2
-13%,CN(c1ccccc1)c1ccc(/C=C(\CCC(=O)O)c2nc3ccccc3s2)cc1[N+](=O)[O-]
-3%,C=CCOC(=O)C1=C[C@H](c2coc3ccccc3c2=O)C[C@H](OCc2ccc(CO)cc2)O1
2%,Cc1nc(Cl)sc1C(=O)Nc1cccc(Cl)c1C
-2%,CC(=O)O[C@H]1C[C@@]2(O)[C@@H](OC(=O)c3ccccc3)C3[C@@](C)([C@@H](O)C[C@H]4OC[C@@]34OC(C)=O)[C@@H](O)[C@H](OC(C)=O)C(=C1C)C2(C)C (stereo partly drawn)
-10%,O=C(Cn1cc(S(=O)(=O)c2ccccc2)c(=O)c2cc(Cl)ccc21)Nc1ccc2c(c1)OCO2
9%,O=C(NNC(=O)c1cnccc1C(F)(F)F)c1cccc(Cl)c1
?,CCC(CO)Oc1cc(NC(=O)c2ccc(F)cc2)c2ncn(C(C)C)c2c1 (stereo not drawn)
-27%,O=c1ccc2ccccc2n1Cc1cccc(F)c1
-18%,CC1CCCCN1S(=O)(=O)c1ccc(C(=O)Nc2nnc(-c3ccco3)o2)cc1 (stereo not drawn)
-4%,CC(CCc1ccccc1)NC(=O)C(=O)NCc1ccccc1 (stereo not drawn)
6%,COc1ccc(OC)c(S(=O)(=O)N(C)CC(=O)N2CCN(c3cccc(Cl)c3)CC2)c1
-1%,O=C(Nc1ccc(N2CCN(C(=O)c3ccc(Cl)cc3)CC2)cc1)c1cccnc1
7%,Cc1ccc(NC(=O)Cn2c(=O)n(Cc3nc(C)no3)c(=O)c3ccccc32)c(Cl)c1
-16%,Cc1cc(C)nc(NS(=O)(=O)c2ccc(N/C=C\C(=O)c3cccs3)cc2)n1
-26%,O=C1CS/C(=N/N=C/c2cccs2)N1Cc1ccc(F)cc1
3%,COc1cc(OC)cc(-c2c(C#Cc3ccsc3)c3cc(-c4ccc5cc[nH]c5c4)ccc3n2C)c1
-11%,CCCn1c(SCC(=O)NC2CCCCC2)nnc1-c1ccccn1
10%,CN(C)C(=O)C1CCC(=O)N1Cc1cccs1 (stereo not drawn)
1%,Cc1ccc(CCNC(=O)CN(C)S(=O)(=O)c2ccc3c(c2)n(C)c(=O)c(=O)n3C)cc1
-8%,CN1CCN(c2ncnc3sc(-c4ccccc4)cc23)CC1
-28%,NNc1nc2ccccc2nc1C(F)(F)F
-13%,O=C1NCC(=O)N(Cc2ccccc2)/C1=C/c1ccccc1
1%,O=C(CSc1nc2ccccc2o1)N1c2ccccc2Sc2ccc(C(F)(F)F)cc21
-2%,COc1ccc(C(=O)Nc2ccc(NC(=O)c3cccc(F)c3)cn2)cc1
-5%,CSc1ccc(S(=O)(=O)NCc2ccc(Cl)cc2)cc1
8%,COc1ccc(C(=O)[C@H]2[C@H]3C(=O)N(c4ccc(C)cc4)C(=O)[C@H]3C3C=CC=NN32)cc1 (stereo partly drawn)
20%,Cc1ccc(OC(C)C(=O)N(Cc2cccs2)C2CCS(=O)(=O)C2)cc1C (stereo not drawn)
7%,COc1cc(C(=O)Nc2cccc(S(=O)(=O)N3CCCC3)c2)cc(OC)c1C
6%,COc1ccc(S(=O)(=O)N2CCCOC2CNC(=O)C(=O)NCc2cccnc2)cc1 (stereo not drawn)
-5%,CCOC(=O)c1cc2occc2n1CC(=O)N1CCOCC1
16%&0%,CCCCCC1C(=O)C[C@@H]2CCN3C(=O)CCC[C@H]1[C@H]23 (stereo partly drawn)
-11%,CC1(C)CC(=O)C2=C(C1)N=C1c3ccccc3C(=O)C1C2c1ccc(Cl)cc1 (stereo not drawn)
-7%,Cc1ccc(/C(N)=N/OC(=O)CSc2ccccc2)cc1
4%,CCN(CC)C(=O)COc1ccc(CC(=O)O)cc1OC
-5%,NC(=O)COC(=O)C1c2ccccc2Oc2ccccc21
-6%,Cc1cc(C)cc(OCc2nc3ncc(Br)cc3[nH]2)c1
6%,COc1ccc(C2=NS(=O)(=O)N(C)C(C(=O)Nc3ccc(OC(F)(F)F)cc3)=C2)cc1
?,CCN(CC)C(=O)Oc1cc(=O)n2c3c(cccc13)CCC2
-2%,Cc1cccc(NC(=O)C2CCCN(c3nnc(-n4c(C)ccc4C)s3)C2)c1C (stereo not drawn)
-10%,O=C(Nc1cccc(S(=O)(=O)N2CCCCC2)c1)c1ccccn1

# Bioassay records from PubChem BioAssay.
